MT1-MMP act inh: MT1-MMP (human) activation inhibition; P50281; GFP/RFP ratio change, % at 20 µM; 0.061% of 360,000 active; HT1080 RFP-PRO-GFP cells, GFP/RFP ratio fluorescence, overnight; percent of plate control window, DMSO zero; AID 651647;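 active = GFP/RFP ratio change of at least 30% with cell ATP level not reduced by more than half and red fluorescence within 50% of control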; also: strong numbers were not always called active
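Material: RFP-PRO-GFP reporter HT1080 cells. Dosing: single-point 20 µM compound, 1% DMSO. Controls: DMSO and RFP-L50D-GFP cell wells. Timing: cells overnight before dosing, compound overnight, 37 °C, 5% CO2. Measure: GFP/RFP fluorescence ratio.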
Rce1 inhib: inhibitors of yeast Ras-converting enzyme. 0.27% of 290,000 active. Q03530. calls only. AID 2563. yeast membranes, quenched prenylated peptide cleavage fluorescence;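 active = fall in fluorescence gain of 50% or more versus controls, with final raw signal at or below 3038400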;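 also: plate controls were neutral control wells for no effect and wells lacking membranes for full effect; tested at 10 µM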
eIF4H FP inh: inhibitors of RNA binding by human eIF4H | 0.94% of 290,000 active | eIF4H fluorescence polarization binding assay | inhibition, % at 35 µM | AID 2012 | Q15056;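 active = 50% or more with normal probe brightness, or confirmed in later tests; about a fifth of its hits are not listed in these tables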;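 also: calls also rest on retests at 20 µM and on dose response follow-up; 0% = protein and probe with vehicle and 100% = probe without protein; strong numbers were not always called active; many hits fall short of the cut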
HIV Env fusion: HIV envelope-mediated fusion inhibition | inhibition, % at 12.3 µM | HeLa-JRFL Env/CEM21 cell fusion, luciferase | AID 651610 | 1.1% of 360,000 active;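 active = mean replicate inhibition score of at least 50 and every replicate individually at or above 50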;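 also: 0% = plate neutral controls and 100% = maraviroc near 300 nM; one replicate is shown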
PABP polyA inh: blocks human PABP binding to poly(A) RNA. 1% of 290,000 active. P11940. AID 2014. inhibition, % at 35 µM. fluorescence polarization;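 active = 50% or more with normal probe brightness, or confirmed in later tests; about a fifth of its hits are not listed in these tables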;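 also: calls also rest on retests at 20 µM and on dose response follow-up; controls were probe without protein and protein plus probe with vehicle; some compounds called inactive have numbers as strong as hits; many hits fall short of the cut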
Target sequence (P11940 whole entry, looked up): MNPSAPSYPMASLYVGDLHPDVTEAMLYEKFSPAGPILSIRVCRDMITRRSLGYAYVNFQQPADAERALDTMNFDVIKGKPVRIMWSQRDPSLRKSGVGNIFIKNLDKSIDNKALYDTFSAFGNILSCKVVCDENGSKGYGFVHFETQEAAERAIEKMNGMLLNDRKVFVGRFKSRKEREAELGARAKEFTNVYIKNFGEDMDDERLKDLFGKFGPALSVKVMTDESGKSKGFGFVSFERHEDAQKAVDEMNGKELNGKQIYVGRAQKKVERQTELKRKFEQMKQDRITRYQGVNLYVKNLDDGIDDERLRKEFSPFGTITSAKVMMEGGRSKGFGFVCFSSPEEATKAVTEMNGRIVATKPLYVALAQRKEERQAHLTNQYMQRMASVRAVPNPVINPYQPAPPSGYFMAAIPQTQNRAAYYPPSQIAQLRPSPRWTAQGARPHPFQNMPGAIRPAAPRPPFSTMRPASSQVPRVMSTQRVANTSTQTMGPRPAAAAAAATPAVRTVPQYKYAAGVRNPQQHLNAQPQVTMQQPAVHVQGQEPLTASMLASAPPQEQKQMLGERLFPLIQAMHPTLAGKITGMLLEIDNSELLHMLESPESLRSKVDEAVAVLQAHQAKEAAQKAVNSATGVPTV
CSC inhib: blocks cancer stem cells | cancer stem cell-like cells viability, luminescence | inhibition, % at 7.5 µM | 1.1% of 300,000 active;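 active = mean at 75% or more and at least half the replicates too; tested in HMLE shEcad cells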;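 also: 0% = median of negative and 100% = median of positive control wells; the first replicate is given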
Yeast UUG start: modulators of start codon recognition fidelity in yeast. 0.13% of 350,000 active. activity score, % at 18.7 µM. S. cerevisiae UUG-firefly luciferase reporter, luminescence/redox ratio;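 active = replicate mean at a twofold rise or more, about +100% in these data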;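 also: firefly luciferase made from a UUG start codon reports start codon fidelity; reporter light over untreated wells divided by growth signal over untreated wells; some hits fall short of that in this replicate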
eIF4H FP inh retest: second read-out of eIF4H FP inh, no call of its own (marks repeat the call); inhibition, %; compound at 20 µM; confirmation average;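 mean of two retest wells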
PABP polyA inh retest: further read-out of PABP polyA inh, marked with its call; inhibition, %; compound at 20 µM; confirmation repeats;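 mean of two retest wells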
MT1-MMP act inh RFP: also measured in MT1-MMP act inh; calls as there; RFP signal change, %; measured here: RFP expression control read;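 0 = vehicle wells; hits needed this value within 50% of zero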
An asterisk follows results filed as active; i = inactive; x = no result given.

SMILES	MT1-MMP act inh	MT1-MMP act inh RFP	Rce1 inhib	eIF4H FP inh	HIV Env fusion	PABP polyA inh	CSC inhib	Yeast UUG start	others
COc1ccc(S(=O)(=O)N2CCC(C(=O)N[C@H](C(=O)NCc3ccco3)C(C)C)CC2)cc1	0.6	1.2	i	x	2.8	x	-13.0	-5.0
CN(C)C(=O)N1CCCC(C(=O)NCCc2ccccc2)C1 (stereo not given)	3.2	7.0	i	88.2	-39.2	-1.1	-7.4	-8.0	eIF4H FP inh retest=-4.2;PABP polyA inh retest=-3.1
Cn1nc(C(=O)Nc2sccc2C(N)=O)ccc1=O	4.0	9.1	i	1.3	-240.5	7.5	-14.2	x
O=C(O)C1CCC(CNS(=O)(=O)c2ccccc2)CC1 (stereo not given)	0.6	3.6	i	-4.6	-9.1	56.4	-8.6	-13.1	eIF4H FP inh retest=-9.4;PABP polyA inh retest=9.5
O=C(CSCc1ccc(Cl)cc1)NN=C1CCCCCC1	-1.3	0.0	i	2.6	-39.3	2.9	-9.2	x
COc1ccc(C(=O)N/C(=C/c2cccnc2)C(=O)Nc2cccc(C(C)=O)c2)cc1OC	2.4	4.4	i	-4.7	-2.9	3.8	x	x
CCN1CCN(C(=O)c2ccc(Sc3ccccc3Cl)c([N+](=O)[O-])c2)CC1	-0.1	-2.9	i	0.7	13.0	-15.1	27.4	x
Nc1nc(SCC(=O)N2CCCc3ccccc32)[nH]c(=O)c1-c1ccccc1	0.8	2.2	i	17.4	x	13.6	-13.6	-18.8
CCn1ncc(Br)c1C(=O)Nc1sc2c(c1C(=O)OC)CCC2	0.0	1.2	i	x	x	x	-7.2	-14.7
O=C(COC(=O)/C=C/c1ccco1)Nc1cc(S(=O)(=O)N2CCOCC2)ccc1Cl	3.7	2.8	x	x	-5.8	x	-18.0	-11.1
O=C(O)CNS(=O)(=O)/C=C/c1ccccc1	-2.3	-3.0	i	0.9	1.1	-12.3	-2.9	x
c1ccc(CSc2ncnc3c2sc2nc(N4CCOCC4)c4c(c23)CCCC4)cc1	1.8	6.4	i	-8.3	x	6.6	-11.8	1.5
NC(=O)COC(=O)/C=C/c1ccc(S(=O)(=O)N2CCCCCC2)cc1	-0.5	-1.0	i	0.7	19.5	16.8	10.8	x
CCOc1ccccc1Nc1nc2ccccc2[nH]1	1.5	1.2	i	-14.0	-30.3	-3.7	-4.8	580.8*
Cc1nc(NCC2CC2)c2nnn(Cc3ccccc3)c2n1	3.3	-0.7	i	-7.8	16.1	-6.7	-5.0	x
Cc1csc(SCc2ccc(C(=O)O)cc2)n1	4.1	7.4	i	-7.1	-57.0	6.2	-2.6	-2.5
O=C1CCC[C@@H]2[C@H]3CCC[N+]4([O-])CCC[C@@H](CN12)[C@@H]34 (stereo not given in full)	0.9	4.4	i	0.0	10.5	2.8	9.5	-7.7
N#Cc1ccc(OCc2ccc(C(=O)O)o2)cc1	1.6	1.9	i	-6.5	-6.8	2.0	-5.1	x
COCCSc1ccccc1C(=O)Nc1nnc(C)s1	-4.7	-2.0	i	4.8	x	2.9	-7.6	-5.1
CCCCc1nc2cc(C(=O)N3CCCC3)ccc2o1	-0.9	3.2	i	3.2	-46.8	-8.0	-6.6	-19.3
Cc1oc(-c2ccc(Cl)cc2)nc1CN1CCCC(C(=O)N2CCN(C(=O)c3ccco3)CC2)C1 (stereo not given)	1.6	-23.7	i	-0.1	47.0	6.4	10.0	-8.5
Cc1ccc(CNC(=O)CCc2ccc(S(=O)(=O)NCC(C)C)cc2)cc1	6.4	-4.4	i	10.5	29.2	-4.5	-2.4	-10.9
Cc1ccc2cccc(OCC(=O)N3CC(C)CC(C)C3)c2n1 (stereo not given)	-1.0	-1.4	i	1.7	14.9	-0.5	x	x
C#CCOc1nc2c(c(=O)n(C)c(=O)n2C)n1Cc1ccccc1	-2.2	-14.6	i	-0.3	10.0	-5.3	-9.7	x
CC1CCCCN1C(=O)COC(=O)/C=C/c1ccc2ccccc2n1 (stereo not given)	-3.6	-5.2	i	-4.4	-12.4	-4.4	11.0	-4.1
SMILES	MT1-MMP act inh	MT1-MMP act inh RFP	Rce1 inhib	eIF4H FP inh	HIV Env fusion	PABP polyA inh	CSC inhib	Yeast UUG start	others
CCc1ccc(-c2ccc(SCC(=O)NCC3CCCO3)nn2)cc1 (stereo not given)	-0.3	-2.0	i	9.0	-18.5	4.1	-6.7	x
CC(OC(=O)c1cccc(N2C(=O)c3ccccc3C2=O)c1)C(=O)Nc1ccc(N(C)C)cc1 (stereo not given)	4.2	3.4	i	-10.3	-1.0	11.4	1.0	x
O=C(c1ccc(S(=O)(=O)Nc2ccccc2)cc1)N1CCCC(C(F)(F)F)C1 (stereo not given)	6.7	-5.2	x	-1.5	-183.9	-3.9	1.0	-3.3
CCN(CC(=O)Nc1cc(Cl)ccc1OC)CC(=O)NC1CCS(=O)(=O)C1 (stereo not given)	-2.5	2.4	i	-2.9	10.6	5.1	2.7	-6.9
Cc1onc(-c2ccccc2)c1C(=O)N1CCC(C)CC1	1.4	2.2	i	0.1	-4.4	2.7	2.4	-2.5
CCCCn1c(N)c(N(CCOC)C(=O)c2cc(CC)c(C)s2)c(=O)[nH]c1=O	-0.7	3.2	i	x	x	x	-16.1	-19.9
CC(C)NC(=S)N1CCN(c2ncccn2)CC1	-1.2	11.9	i	-5.6	11.2	10.3	-12.0	x
Cc1cc(-c2n[nH]c(=S)n2/N=C/C=C/c2ccco2)n[nH]1	-1.3	3.4	i	93.4*	0.8	65.2*	-1.2	-32.2
Cc1cc2oc(=O)cc(CSc3nnc(-c4cccs4)o3)c2cc1C(C)C	-2.2	-12.4	i	-5.3	46.3	2.6	-3.9	x
c1ccc(-c2nnc(SCc3nc4ccccc4[nH]3)n2Cc2ccco2)cc1	5.6	1.6	i	-4.6	x	-1.5	x	-22.1
O=C(NNC(=O)C1CCN(Cc2ccccc2)CC1)c1cccs1	1.8	4.3	i	-2.8	10.7	-5.9	-14.9	x
O=C(COc1ccc(F)cc1Br)NCC1(N2CCOCC2)CCCCC1	-0.9	-6.2	x	x	x	x	-5.7	-1.6
Cc1ccccc1OCC(=O)NC(=S)Nc1ccc(Br)c(C)n1	4.4	3.6	i	-0.9	x	-10.7	-5.3	-17.9
Cc1ccc(NC(=O)Nc2ccc3c(c2)OCO3)c(OC(F)F)c1	2.2	0.9	i	-1.9	-122.1	-16.0	7.2	-22.8
O=C(/C=C/c1cccs1)NC(=S)Nc1ccc(S(=O)(=O)Nc2ccccc2C(F)(F)F)cc1	-0.2	-4.4	i	-9.3	-13.5	-9.3	43.2	-17.6
CC(NC(=O)c1ccc(Cn2cc([N+](=O)[O-])cn2)o1)c1ccccc1 (stereo not given)	8.2	3.4	i	1.9	25.6	-3.4	-4.0	1.3
CC1(C(=O)NS(=O)(=O)c2ccccc2Cl)CCN1C(=O)CCc1cccs1 (stereo not given)	-1.3	1.3	x	x	-27.1	x	x	-0.7
COc1ccc(CC(=O)NNC(=O)c2cccs2)cc1OC	-4.6	4.4	x	-4.2	5.2	-12.2	-7.7	x
O=C(c1ccco1)N1CCN(C(=O)C2CC(=O)N(c3ccc(Cl)cc3)C2)CC1 (stereo not given)	-2.1	1.5	i	3.3	-8.4	3.9	-12.7	-7.6
CCN1C(=O)C(Cc2nc3ccccc3c(=O)n2-c2ccccc2)c2ccccc21 (stereo not given)	1.3	1.7	i	3.1	49.3	-3.0	-0.1	-16.7
CCSc1nnc(CNC(=O)C23CC4CC(CC(C4)C2)C3)n1Cc1ccccc1	0.5	3.0	i	4.4	-4.6	-29.4	-2.8	4.7
Cc1cccc(N2CCN(C(=O)NC3CCCCC3)CC2)c1C	-1.4	-6.3	i	6.0	35.4	-11.3	x	-10.9
Cc1ccc(C(=O)NCCCCNC(=O)c2ccc(C)o2)o1	-1.9	-4.0	i	1.9	x	31.4	0.9	-22.5
C=CCn1c(=O)c2ccccc2n2c(SCC(=O)NCCc3ccccc3)nnc12	-1.1	-0.6	i	-9.4	-33.7	5.5	3.6	1.5
CCOC(=O)c1cc(NC(=O)N(CC)C2CCCCC2)c(C)nc1C	5.9	2.8	i	5.4	x	-7.3	-9.7	x
SMILES	MT1-MMP act inh	MT1-MMP act inh RFP	Rce1 inhib	eIF4H FP inh	HIV Env fusion	PABP polyA inh	CSC inhib	Yeast UUG start	others
CN1CCC(C(=O)N2CCCC(C(=O)c3ccc4c5c(cccc35)CC4)C2)CC1 (stereo not given)	-0.3	-1.5	i	-6.6	25.0	-4.8	4.7	x
CC(Sc1nnnn1C1CC1)C(=O)N1c2ccccc2NC(=O)C1(C)C (stereo not given)	-0.3	4.4	x	x	-8.8	x	12.1	-8.0
CCc1ccc(/C=C(\C)C(=O)c2c(C)cc(C)[nH]c2=O)cc1	-0.3	3.9	i	-7.1	-31.0	65.2	-6.2	x	eIF4H FP inh retest=-12.6;PABP polyA inh retest=5.1
Cc1cccc(NC(=O)CN(C)S(=O)(=O)c2ccc(Br)cc2)n1	4.6	-0.3	i	-7.7	-4.5	-13.0	12.1	x
COc1ccc(C(=O)CC(=O)C(=O)Nc2c(C)cccc2C)cc1	1.2	0.6	i	-5.6	2.2	2.2	10.7	6.4
Cc1occc1-c1nnc(SCC(=O)N2CCN(c3ccccc3)CC2)n1C	0.5	-0.5	i	-5.0	32.4	-17.6	-21.2	-10.9
CC1Cn2c(nnc2-c2ccc(F)cc2)S1 (stereo not given)	-2.8	2.0	i	-1.6	-16.8	7.4	5.9	-15.6
Cc1cc(OCC(=O)NCCCN2CCOCC2)c2c(C)c(C)c(=O)oc2c1	4.3	5.2	i	7.1	4.2	-4.6	-22.9	-8.9
Cn1c(=O)c2[nH]c(CCCC(=O)O)nc2n(Cc2ccccc2)c1=S	0.3	4.7	i	x	6.0	x	-26.8	-20.4
O=C(NNS(=O)(=O)c1ccccc1)c1csc(-c2cccnc2)n1	-8.8	-5.5	i	-0.3	23.5	4.3	-9.6	x
Cc1ccc(-n2c(-c3cn(C)nc3C)n[nH]c2=S)cc1	x	x	i	2.9	x	12.6	0.6	x
COc1ccccc1CN1CCN(C(=O)c2ccco2)CC1	1.9	4.2	i	0.9	-5.0	15.1	-2.0	-12.2
COc1ccc(OC)c(S(=O)(=O)Nc2cc3c4c(c2)CCN4C(=O)CC3)c1	2.9	4.9	i	x	15.5	x	-9.4	-6.0
